RecA splice inh – Mtb RecA intein splicing inhibition; P9WHJ3; cell-free RecA intein splicing, fluorescence; inhibition, %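 (about 9 µM by stock and volumes)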; 290,000 tested, 0.75% active; AID 2221; in the data active = inhibition above about 30%; inconclusive = no clear call, values can overlap the other calls;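 also: 0% = vehicle wells and 100% = reference inhibitor control wells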
Target sequence (P9WHJ3 whole entry, looked up, canonical isoform): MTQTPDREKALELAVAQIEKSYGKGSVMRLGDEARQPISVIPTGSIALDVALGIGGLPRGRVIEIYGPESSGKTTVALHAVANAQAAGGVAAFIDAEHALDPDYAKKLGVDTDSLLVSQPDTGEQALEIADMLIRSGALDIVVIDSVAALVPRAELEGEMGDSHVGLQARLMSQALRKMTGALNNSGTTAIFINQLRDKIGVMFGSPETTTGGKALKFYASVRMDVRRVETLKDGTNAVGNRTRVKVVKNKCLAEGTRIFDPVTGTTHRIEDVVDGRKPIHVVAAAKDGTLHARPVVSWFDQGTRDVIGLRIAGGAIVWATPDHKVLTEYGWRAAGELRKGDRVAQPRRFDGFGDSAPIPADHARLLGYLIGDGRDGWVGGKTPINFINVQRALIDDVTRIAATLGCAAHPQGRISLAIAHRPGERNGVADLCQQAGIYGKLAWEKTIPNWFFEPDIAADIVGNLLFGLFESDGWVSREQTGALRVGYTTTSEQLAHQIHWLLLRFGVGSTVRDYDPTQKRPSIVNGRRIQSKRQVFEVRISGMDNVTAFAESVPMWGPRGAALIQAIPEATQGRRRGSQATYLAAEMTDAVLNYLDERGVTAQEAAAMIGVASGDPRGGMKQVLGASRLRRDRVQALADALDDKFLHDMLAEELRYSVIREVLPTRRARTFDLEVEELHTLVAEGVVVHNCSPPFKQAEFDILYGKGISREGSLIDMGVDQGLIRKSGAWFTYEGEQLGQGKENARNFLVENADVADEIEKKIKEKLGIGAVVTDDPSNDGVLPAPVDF
Mtb H37Rv – M. tuberculosis H37Rv growth inhibitors, H37Rv strain (AID 1626); M. tuberculosis H37Rv growth inhibition; higher % means a stronger effect; 220,000 tested, 0.95% active; inhibition, % at 10 µM, or IC50 in µM where a hit was titrated;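 active = confirmed in a dose series; inconclusive = inhibition above 80% but not taken into the dose series; inactive = below 80% or under 30% at every dose of the series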;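 also: bacteria incubated seven days before Alamar blue readout; 0% = bacteria only wells and 100% = bacteria with antibiotic wells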
Mtb betalactam – beta-lactam sensitization of Mtb H37Rv; M. tuberculosis H37Rv growth with meropenem, percent inhibition; hits of this screen are not shown here; inhibition, % at 25 µM; 330,000 tested, 0.27% active;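 active = about 74% or more and at least 40 points above the plate without the antibiotic, then above 30% in a dose series; inconclusive = first-round hits that could not be retested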;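 also: growth measured after seven days incubation then overnight dye step; 0% = bacteria only wells and 100% = bacteria with antibiotic; twin plates without the antibiotic show which effects depend on it; some results filed as inactive read as strong as hits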
Arbovirus inh – blocks arbovirus infection; inhibition, % at 10 µM; 200,000 tested, 0.37% active; arbovirus infection cell-based antiviral screen;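 active = inhibition from about 30%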;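 also: bluetongue infection of BSR cells; cell survival read as ATP light after 72 h; 0% = infected wells without compound and 100% = uninfected wells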
YopH PTP inh – blocks Yersinia enterocolitica YopH tyrosine phosphatase; fluorescence Ex485/Em525; inhibition, %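 (about 10 µM by stock and volumes)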; AID 898; 140,000 tested, 0.16% active;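 active = inhibition of 50% or more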;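 also: controls were vehicle for no effect and minimum signal wells for full effect; inactives centre near -20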
Arbovirus inh repeat – further read-out of Arbovirus inh, marked with its call; inhibition, %; measured here: 10K subset replicate screen; many hits read low in the repeat;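 first of two repeat runs on a subset; 0% = infected and 100% = uninfected wells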
* hit, by the source's call; ? = inconclusive; / = no result given.

SMILES	RecA splice inh	Mtb H37Rv	Mtb betalactam	Arbovirus inh	YopH PTP inh	others
O=C(N/N=C/C=C/c1ccco1)c1cccnc1	2.8	-2%	3	12	-3
CNC(=O)c1ccc(CNC(=O)OCc2ccccc2)cc1	-0.5	3%	-1	-1	/
COc1ccccc1Nc1ccncc1[N+](=O)[O-]	0.3	2%	-4	-3	/
COc1cc2[nH]c(=S)nc(NCc3ccc(C)cc3)c2cc1OC	0.4	/	-3	/	/
O=[N+]([O-])c1ccc(-c2cn(-c3ccccc3)c(=S)[nH]2)cc1	-2.9	1%	1	-3	-28
CCc1c(C)[nH]n(-c2nc(-c3cccc([N+](=O)[O-])c3)cs2)c1=O	-0.6	10%	57	-15	-31
Cc1cccc(N(CC(=O)N2CCc3ccccc3C2)S(C)(=O)=O)c1C	0.6	/	-4	/	/
Cc1ccc(OCCNC(=O)CCNS(=O)(=O)c2ccc(Br)cc2)cc1	-0.7	/	-6	/	/
COC(=O)C1=C(C)OC(N)=C(C#N)C1C1CCCCC1 (stereo unspecified)	3.3	-12%	-2	2	-36
Cn1c(COc2ccc(Cl)cc2)nc2ccccc2c1=O	16	2%	6	2	-6
CCOc1ccc(N2C(=O)CC(N(Cc3ccco3)C(=O)CCC(=O)O)C2=O)cc1 (stereo unspecified)	-0.5	-3%	-2	-1	/
COc1ccc(NC(=O)C2CCCN2C(=O)NC2CCCCC2)cc1OC (stereo unspecified)	0.3	-15%	-5	5	-35
Cc1ccc(CN2CCc3[nH]c(=S)[nH]c(=O)c3C2)cc1	-1.1	/	-6	/	/
O=C(c1cc(-c2ccc(Br)cc2)nc2ccccc12)N1CCN(c2ccccc2O)CC1	3.5	/	-4	/	/
O=C(O)CCc1ccc(S(=O)(=O)Nc2ccccc2C(=O)NCCc2ccccc2)cc1	-0.1	/	3	/	/
CN1CCC(NC(=O)Nc2cccc(C(F)(F)F)c2)CC1	-0.7	0%	1	-1	/
O=c1[nH]c(C2CCCN(S(=O)(=O)c3ccc(F)cc3)C2)nc2c1nnn2Cc1ccc(F)cc1 (stereo unspecified)	2.0	/	9	/	/
CC1Sc2ccc(S(=O)(=O)N3CCC(C(=O)NCCc4ccccc4)CC3)cc2NC1=O (stereo unspecified)	2.1	/	-1	/	/
NC(=O)c1ccccc1OCc1cccc2ccccc12	-0.7	/	-6	/	/
CCOc1ccc(C2Nc3ccc4ccccc4c3-c3c2c(=O)oc2ccccc32)cc1 (stereo unspecified)	-19	57%	76	-15	-15
Nc1nc(N)nc(-c2ccccc2)n1	-1.2	3%	-3	2	28
CC(C)CC(=O)Nc1ccccc1N1CCN(c2ccccc2)CC1	/	-4%	-4	-4	/
COc1ccc(N2CCN(C(=O)C(C)(C)Oc3ccc(Cl)cc3)CC2)cc1	11	11%	5	3	-31	Arbovirus inh repeat=5
CCOCCCNC(=O)/C(C#N)=C/c1ccc(Cl)c([N+](=O)[O-])c1	13	-4%	14	-27	/
COc1cccc(CCc2nnc(CCC(=O)N(C)C3CC(C)(C)NC(C)(C)C3)o2)c1	-1.6	/	3	/	/

Remaining list, next part.
SMILES	RecA splice inh	Mtb H37Rv	Mtb betalactam	Arbovirus inh	YopH PTP inh	others
CCC(C)NC(=O)C1CC(c2cccc(OC)c2)=NO1 (stereo unspecified)	1.2	5%	-6	15	-28
COc1ccc(C2=NN(CCC(=O)NCC3CCCO3)C(=O)CC2)cc1 (stereo unspecified)	2.8	/	-11	/	/
O=C(NC(=S)Nc1ccc(Cl)cc1)c1cncc(Br)c1	-1.2	/	0	/	/
COc1cc(OC)c(OC)cc1/C=N/NC(=O)c1cnccn1	1.5	-3%	5	0	/
CCS(=O)(=O)N1Cc2ccccc2CC1C(=O)OCC(=O)Nc1ccc(SC(F)F)cc1 (stereo unspecified)	6.8	-3%	0	-1	-12
CCN1CCN(C2=C(NS(=O)(=O)c3ccc(C)cc3)C(=O)c3ccccc3C2=O)CC1	2.6	/	1	/	/
CCCCNC(=O)c1ccc(CS(=O)(=O)c2cccc(C(F)(F)F)c2)o1	-2.7	-2%	-3	2	-44
O=C(N=NC(=O)c1ccc2c(O)n(CC3CCCO3)c(O)c2c1)c1cccnc1 (stereo unspecified)	0.4	0%	-4	/	/
Cn1nc(C(=O)NCc2ccc(Cl)cc2)c2c1-c1ccccc1S(=O)(=O)C2	-5.5	/	-1	/	/
COC(=O)Nc1csc2c1NC(=O)CCCC2	-5.2	-9%	5	/	/
Cc1ccc(NC(=O)CC(C(=O)O)c2ccccc2)cc1 (stereo unspecified)	2.5	-7%	-7	5	-24
O=C(NNC(=O)c1ccncc1)c1ccncc1	-0.1	-29%	-23	0	-15
Cc1ccc(OCCNC(=O)c2ccco2)cc1C	2.4	4%	1	6	-46	Arbovirus inh repeat=-5
CCC(C)NS(=O)(=O)c1ccc(NS(=O)(=O)c2ccccc2[N+](=O)[O-])cc1 (stereo unspecified)	-5.2	-4%	-3	5	/
COc1ccc(CCNC(=O)Cc2ccc(Cl)cc2)cc1OC	-2.4	/	5	/	/
CN(C)/C=C/C(=O)c1ccc(N2CCN(c3ncc(C(F)(F)F)cc3Cl)CC2)cc1	5.7	-11%	82	-42	-2
COc1ccc(CNc2nccs2)cc1	-1.7	/	1	/	/
COC(=O)c1cccc(NS(=O)(=O)c2ccc(OC)c(C(=O)N3CCOCC3)c2)c1C	3.5	/	2	/	/
CCC(C)NC(=O)c1ccccc1C(=O)NC(C)CC (stereo unspecified)	0.1	-2%	-4	2	-32
Cc1ccc(N2C(=O)CC(NNc3nc4ccccc4s3)C2=O)cc1 (stereo unspecified)	0.9	9%	2	3	-6
CCc1nc2ccc(F)cc2c(C(=O)NC2CCCCC2C)c1C (stereo unspecified)	3.9	-5%	6	2	-24
CCC(C)C(=O)Nc1cc(C(=O)OC)ccc1C(=O)OC (stereo unspecified)	-1.1	-1%	26	0	-33
CC(C(=O)Nc1ccccc1-c1ccccc1)N1CCN(S(=O)(=O)c2ccccc2)CC1 (stereo unspecified)	-0.4	-3%	2	61*	-10
CCOc1ccc(S(=O)(=O)Nc2ccc(F)cc2)c(C)c1C	4.8	2%	-3	-26	-27
O=C(NCc1ccccn1)C(=O)NCC1OCCN1S(=O)(=O)c1ccc(Br)cc1 (stereo unspecified)	-1.3	/	2	/	/

Additional compounds follow:
SMILES	RecA splice inh	Mtb H37Rv	Mtb betalactam	Arbovirus inh	YopH PTP inh	others
CC(=O)C1=NN(c2ccccc2)C(c2ccc3c(c2)OCO3)N1c1ccc(N2CCOCC2)cc1 (stereo unspecified)	0.3	6%	66	-9	1
Cc1ccc(CNC(=O)C2CCCC2)cc1	1.9	/	-1	/	/
CSC1=NCCN1C(=O)C(C)(C)Oc1ccc(Cl)cc1	17	-12%	-10	14	-34	Arbovirus inh repeat=11
CC(=O)c1c(N2CCN(c3ccc(F)cc3)CC2)nc(=S)n(Cc2ccccc2)c1C	3.9	5%	1	2	-32
Cc1cccc(OCc2nnc(SCC(=O)NCC3CCCO3)n2C)c1 (stereo unspecified)	-1.8	/	3	/	/
CCCCc1ccc(CC(=O)O)cc1	/	-10%	-8	-2	-37
CC1CCCCN1CCCNC(=O)Cn1c(=O)c2cccn2c2ccccc21 (stereo unspecified)	-1.5	/	-3	/	/
COc1ccc(-c2nnc(N3CCCCC3)c3ccccc23)cc1	2.0	15%	8	7	-14
Cc1onc(-c2ccccc2)c1C(=O)NC(C)C	/	-7%	-2	18	/	Arbovirus inh repeat=4
O=C(CNC(=O)C1COc2ccccc2O1)N/N=C\c1ccc(Cl)cc1 (stereo unspecified)	1.2	-8%	-7	/	/
COc1ccc(OC)c(S(=O)(=O)N2CCCCC2C(=O)O)c1 (stereo unspecified)	-0.8	-3%	-2	-4	-12
C/C(=N/NC(=O)c1ccc(C(C)(C)C)cc1)c1cccnc1	1.6	/	-1	/	/
COc1ccc(-c2cc(N)n(S(=O)(=O)Cc3ccccc3)n2)c(OC)c1	3.0	3%	-5	3	-38	Arbovirus inh repeat=-4
c1ccc(COc2ccc(-c3csnn3)cc2)cc1	-2.3	20%	28	-3	-40
O=C(NCC(c1ccco1)N1CCCC1)c1ccc(Cl)cc1 (stereo unspecified)	3.8	8%	-8	0	-22
CCOc1ccc(OCC(=O)Nc2cc3c(cc2C(=O)O)OCCCO3)cc1	2.3	/	1	/	/
O=C(NNS(=O)(=O)c1ccc(Br)cc1)c1cccs1	3.1	-2%	2	-8	/
CCOc1ccc(N(CC(=O)Nc2cc(Cl)ccc2C)S(C)(=O)=O)cc1	-0.7	/	-10	/	/
COc1ccc(-n2cnc3scc(-c4ccccc4)c3c2=O)cc1	1.9	10%	7	-5	/
O=C(NCc1cccs1)Nc1cc(Cl)ccc1Cl	1.5	8%	-5	2	/
CC(C)c1nnc(NC(=O)CSc2nc3ccccc3s2)s1	1.4	-5%	-1	14	-32
O=C(NCCc1ccccn1)c1ccc(OC2CCN(CCc3ccccc3)CC2)cc1	-2.7	/	2	/	/
Cc1ccc(N(Cc2cc(=O)[nH]c3ccccc23)C(=O)c2ccco2)cc1	2.4	-1%	-12	-5	-45
CCN(CC)C(=O)c1sc(NC(=O)c2cccc([N+](=O)[O-])c2)c(C#N)c1C	-7.2	-1%	4	4	-12
CSCC(=O)N1CCC(CCC(=O)NC2CC2)CC1	-0.6	/	0	/	/

Sorted by formula weight (largest number first): some entries from above.
SMILES	RecA splice inh	Mtb H37Rv	Mtb betalactam	Arbovirus inh	YopH PTP inh	others
CCN1CCN(C2=C(NS(=O)(=O)c3ccc(C)cc3)C(=O)c3ccccc3C2=O)CC1	2.6	/	1	/	/
CCCCNC(=O)c1ccc(CS(=O)(=O)c2cccc(C(F)(F)F)c2)o1	-2.7	-2%	-3	2	-44
O=C(NNS(=O)(=O)c1ccc(Br)cc1)c1cccs1	3.1	-2%	2	-8	/
Cc1ccc(N(Cc2cc(=O)[nH]c3ccccc23)C(=O)c2ccco2)cc1	2.4	-1%	-12	-5	-45
COc1cc2[nH]c(=S)nc(NCc3ccc(C)cc3)c2cc1OC	0.4	/	-3	/	/
CSC1=NCCN1C(=O)C(C)(C)Oc1ccc(Cl)cc1	17	-12%	-10	14	-34	Arbovirus inh repeat=11
CN1CCC(NC(=O)Nc2cccc(C(F)(F)F)c2)CC1	-0.7	0%	1	-1	/
Cc1ccc(CN2CCc3[nH]c(=S)[nH]c(=O)c3C2)cc1	-1.1	/	-6	/	/
NC(=O)c1ccccc1OCc1cccc2ccccc12	-0.7	/	-6	/	/
CCC(C)NC(=O)C1CC(c2cccc(OC)c2)=NO1 (stereo unspecified)	1.2	5%	-6	15	-28
O=C(N/N=C/C=C/c1ccco1)c1cccnc1	2.8	-2%	3	12	-3
Nc1nc(N)nc(-c2ccccc2)n1	-1.2	3%	-3	2	28

More records:
SMILES	RecA splice inh	Mtb H37Rv	Mtb betalactam	Arbovirus inh	YopH PTP inh	others
O=C(CSc1ncnc2sccc12)Nc1ccccc1F	1.1	-7%	-10	1	/
CCOc1ccc(NC(=S)NC(=O)c2cncc(Br)c2)cc1	-0.4	/	65	/	/
COn1cnnc1-c1ccccc1	-4.3	-2%	5	3	-49
O=C(c1ccccc1)c1nn(-c2ccccc2)c(=O)cc1C(F)(F)F	2.7	21%	54	-21	-9
COc1ccc(C(=O)NCc2nc(C)c(C)s2)cc1OC1CCN(C(C)C)CC1	1.5	/	-8	/	/
CCOC(=O)c1c(C)nc2ncccn12	-0.5	-4%	-1	10	-5
CC(C)OCCCNC(=O)c1ccc(NC(=O)C2=CSCCO2)cc1	0.2	/	4	/	/
Cc1ccc(NC(=O)c2nnn(CC(=O)Nc3ccccc3)c2N)cc1C	-0.9	-1%	2	-6	-55
CN1C(=O)C(Cc2cnc[nH]2)NC1=S (stereo unspecified)	-2.8	/	?	/	/
Nc1nc(CSc2nc3ccccc3[nH]2)cs1	-0.1	0%	3	-1	-39
CCOc1ccc(NC(=O)c2cc(C)nc3ccccc23)cc1	-1.4	9%	3	-6	/
Cc1sc(NC(=O)c2ccco2)c(CN2CCN(c3ccccc3)CC2)c1C	-2.3	54%	39	2	-5
CCn1cc(Cl)c(C(=O)N2N=C3/C(=C/c4cccs4)CCCC3C2c2cccs2)n1 (stereo unspecified)	-1.5	0%	5	-10	2
O=C1C2C3C=CC(C3=C3CCCCC3)C2C(=O)N1c1ccccc1 (stereo unspecified)	-1.6	-13%	-9	-5	12
NC(=O)CN1CCN(CCN2C(=O)c3cccc4cccc(c34)C2=O)CC1	-3.0	/	-6	/	/
CC1CCCN(S(=O)(=O)c2ccc3oc(=O)ccc3c2)C1 (stereo unspecified)	0.5	/	0	/	/
CCN(CC)C1CC(=O)N(c2cccc(Cl)c2)C1=O (stereo unspecified)	3.3	/	-1	/	/
O=C(C(Cc1ccccc1)n1cccc1)N1CCN(Cc2ccccc2)CC1 (stereo unspecified)	0.8	8%	-11	-22	-19

Bioassay records from PubChem.

An excerpt; the hit share may differ from the screen's.
